Biofilm kill mix: clotrimazole potentiators killing C. albicans biofilm, primary screen, 4-compound mixtures; inhibition, % at 7.6 µM; C. albicans biofilm persisters + clotrimazole, fluorescence viability; primary screen in compound mixtures of four per well; actives 0.02% (n = 120,000);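 active means inhibition above 30.3% in the primary screen of four-compound pools, then above 30% when the compound was retested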;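 further: compounds exposed to preformed 24 h biofilms for 48 h; the number belongs to the whole pool; some results filed as inactive read as strong as hits; inactives centre near 12; 0% = biofilm with clotrimazole alone and 100% = kill control; retested singly at about 60 µM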
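Assay system: C. albicans biofilms / Medium: RPMI/MOPS medium, pH 7.0 / Schedule: biofilm formation 24 h, compound exposure 48 h, 37 °C / Measured by: Alamar Blue fluorescence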
Starred values were filed as active, the others as inactive. An excerpt (hit frequency here may not be typical).

SMILES	Biofilm kill mix
Cc1ccccc1C(=O)NNc1ncnc2c1cnn2C	11.9
COc1ccc(-c2[nH]n(-c3ccc([N+](=O)[O-])cc3)c(=O)c2C=NCc2ccncc2)cc1	6.2
O=C(CN(Cc1ccco1)C(=O)CNS(=O)(=O)c1ccc(Cl)cc1)NCC1CCCO1 (stereo not given)	18.5
Cc1ccc(/C=C/C(=O)O)cc1S(=O)(=O)Nc1ccc(C(=O)O)cc1	20.5
CC(=O)OCC1(C)CN(c2ccccc2)N(C(=O)c2ccc(F)cc2)C1=O (stereo not given)	-5.3
O=C(CNC(=O)c1ccco1)N/N=C/c1c[nH]c2ccccc12	6.7
Cc1ccc2nc(C(Cl)(Cl)Cl)nc(N/N=C/c3ccncc3)c2c1	8.7
Cc1ccc(C(=O)Nc2sc3c(c2C#N)CCCCC3)cc1C	4.1
O=C(NC(=S)N1CCCCC1)c1csc([N+](=O)[O-])c1	14.9
Cc1nccc(-c2ccc(-n3c(C)ccc3C)cc2)n1	10.7
Cc1ccccc1CNc1ccc(C(CC(N)=O)NC(=O)c2ccc(Br)cc2)cc1[N+](=O)[O-] (stereo not given)	15.4
CCN1CCN(S(=O)(=O)c2ccc(Oc3ccccc3OC)cc2)CC1	9.9
Cc1ccccc1NC(=O)c1c(Cl)nc(C)c(Cl)c1C	11.5
Cc1ccc(S(=O)(=O)N/N=C(\c2ccccc2)c2cccnc2)cc1	10.5
NS(=O)(=O)c1ccc(CCNC(=O)CCCn2c(SCC(=O)N3CCCC3)nc3ccsc3c2=O)cc1	21.8
O=C(Nc1ccccc1)C1=C[C@H](C2CCCCC2)C[C@H](OCc2ccc(CO)cc2)O1	14.2
COC(=O)CNC(=O)C1Cc2ccccc2CN1S(=O)(=O)c1cccs1 (stereo not given)	5.5
CC(C)COc1ccc(C(=O)NC(Cc2c[nH]c3ccccc23)C(=O)NN)cc1 (stereo not given)	15.9
COc1ccc(C(=O)N2CCOC23CCN(c2ncccn2)CC3)cc1	14.4
Cc1ccc(S(=O)(=O)N2CCN(Cc3ccccn3)CC2)cc1	21.1
CN(Cc1cn[nH]c1-c1cc2ccccc2o1)CC1CCOCC1	8.5
Cn1ccsc1=NC(=O)c1ccccc1F	13.9
CCN(CC)S(=O)(=O)c1cc(NC(=O)c2cc(-c3ccccn3)nc3ccccc23)ccc1C	15.9
COc1ccc(NC(=O)c2ccccc2)c([N+](=O)[O-])c1	20.5
COC(=O)c1sccc1NC(=O)c1sccc1C	18.9
C/C(=N/OC(=O)CC(C)C)c1cc(-c2ccc(Cl)cc2)no1	17.2
CCO[C@H]1OC(C(N)=O)=C[C@@H](c2ccc(Br)cc2)[C@@H]1CCCO	9.2
COc1ccc2nc3sc(C(=O)NCCN4CCc5ccccc5C4)cc3cc2c1	17.1
NCC(=O)Nc1ccc(Cl)cc1C(=O)c1ccc[nH]1	5.7
CSc1cccc(NC(=O)N2CCCC(CNS(=O)(=O)Cc3ccccc3)C2)c1 (stereo not given)	6.6
COc1cccc(NC2=C(C#N)C(=O)NC(c3cccc(OC)c3O)S2)c1 (stereo not given)	17.6
C=Cn1c(C(=O)O)ccc1-c1ccc(OC)cc1	7.4
CN1C(=S)SC(N(O)C(=O)Nc2ccc(Cl)c(Cl)c2)C1(C)C (stereo not given)	5.5
COC(=O)c1ccc(S(=O)(=O)N2CCC(O)CC2)n1C	7.0
O=C(NCCCN1CCCC1)c1ccc2c(c1)N(Cc1ccccc1)CCS2	27.0
CCN1C(=O)/C(=C\c2nc3ccccc3c(=O)n2-c2ccccc2)c2ccccc21	16.3
CCOC(=O)CNC(=O)N1CCCC(CNS(=O)(=O)c2cccs2)C1 (stereo not given)	1.0
CCN(CC)CCCN(C(=O)Cn1nnc(-c2ccc(OC)c(OC)c2)n1)C(C(=O)NC(C)(C)C)c1ccc(F)cc1 (stereo not given)	15.3
CCC(=O)Nc1ccc(NC(=S)NC(=O)c2cc3ccccc3o2)cc1	20.3
COc1ccc(Cc2nc3c4c(ncn3n2)Oc2ccc3ccccc3c2C4c2ccc(OC)c(OC)c2)cc1 (stereo not given)	5.5
Cc1c(N)cc(N)cc1C(=O)O	23.7
C/C(=N\NC(=O)CNc1ccccc1)c1ccccc1	18.7
O=C(CSc1nnc2n1CCCN2)c1ccc([N+](=O)[O-])cc1	4.1
CCCCc1nc2ccccc2c(N)c1CCC (tested in a mixture with another compound)	25.6
CCN(CC)S(=O)(=O)c1ccc(OC)c(NS(=O)(=O)c2cccc(C(=O)O)c2)c1	-5.6
CC(C)(C)C(=O)/C=C1\NC(=O)CS1	-12.6
COc1ccccc1N1CCN(C(=O)/C=C/c2ccc(C)cc2)CC1	24.0
CCN(CC)S(=O)(=O)c1ccc(NC(=O)CN(c2cccc(C)c2)S(C)(=O)=O)cc1	11.3
Cc1c(/C=N\NC(=O)C2COc3ccccc3O2)c2ccccc2n1C (stereo not given)	13.7
Cc1cc(/C=C(/C#N)C(=O)Nc2ccc(Cl)cc2)c(C)n1-c1cccnc1	14.7
C=CCNC(=O)c1ccccc1NC(=O)Cc1ccccc1[N+](=O)[O-]	19.7
CCc1ccc(C2=NN(C(C)=O)C(c3ccco3)C2)cc1 (stereo not given)	-3.8
COc1ccccc1[C@@H]1C(c2ccc(F)cc2)=NN(c2ccccc2)[C@H]1C(=O)N1CCOC1=O	16.3
Cc1ccc(S(=O)(=O)N(C(=O)c2ccco2)c2cc3sc(=O)oc3c3ccccc23)cc1	-1.3
COc1ccc(C(=O)CCN2CCN(c3ccccc3OC)CC2)cc1	6.9
COc1ccc(NC(=O)C2=Cc3cccc(OC)c3OC2)cc1	6.5
CC(C)(C)c1ccc(OCCC(=O)Nc2cccc(S(=O)(=O)N3CCCCC3)c2)cc1	21.1
Cc1cc(-c2ccccc2)cc(-c2ccccc2)[n+]1C	10.6
O=C(CS(=O)(=O)c1cn(Cc2ccc(F)cc2)c2ccccc12)N1CCOCC1	4.7
CCCCNC(=O)CCC(=O)Nc1ccc2nc(N3CCC(C)CC3)cc(C)c2c1	7.6

Structures above containing a tert-butyl group (3):
SMILES	Biofilm kill mix
CCN(CC)CCCN(C(=O)Cn1nnc(-c2ccc(OC)c(OC)c2)n1)C(C(=O)NC(C)(C)C)c1ccc(F)cc1 (stereo not given)	15.3
CC(C)(C)C(=O)/C=C1\NC(=O)CS1	-12.6
CC(C)(C)c1ccc(OCCC(=O)Nc2cccc(S(=O)(=O)N3CCCCC3)c2)cc1	21.1

Continued:
SMILES	Biofilm kill mix
CC(=O)Nc1ccc(N2CCOCC2)c(Cl)c1	9.3
COc1ccc(CCCc2nnc(SCC(=O)NN)o2)cc1	6.7
O=C(Nc1ccccc1N1CCOCC1)c1ccc(N2CCOCC2)c([N+](=O)[O-])c1	6.4
CCCCOc1cccc(NC(=O)CSc2nncn2C)c1	6.0
O=C(CSc1nc2ccccc2s1)Nc1ccc2c(c1)oc1ccccc12	7.7
CC(=O)NCC(=O)OCc1ccc([N+](=O)[O-])cc1	5.2
CCCN(Cc1ccccc1)C(=S)NC(=O)c1ccccc1[N+](=O)[O-]	8.2
CCOC(=O)NC(=O)C(=CNc1ccc(C)cc1)C(=O)NC(=O)OCC	10.6
COc1ccc(C2CC(c3ccccc3)=NN2C(=O)CN2CCN(Cc3ccccc3)CC2)cc1 (stereo not given)	11.2
Cc1cnc(NC(=O)CSC(=S)N2CCOCC2)s1	8.2
CN(CC(=O)Nc1ccccc1Sc1ccccc1)Cc1nc2ccccc2c(=O)[nH]1	8.0
CCOC(=O)c1ccc(NC(=S)N(CCCN2CCCC(C)C2)Cc2cccs2)cc1 (stereo not given)	0.1
CC1CCCN(C(=O)COc2ccc(-c3ccccc3)cc2)C1 (stereo not given)	-0.1
Cc1ccc(-n2nc(C)c3onc(C)c3c2=O)cc1	18.3
O=C(O)c1ccc(Nc2cnc3ccccc3n2)cc1	15.4
O=C(/C=C/c1ccco1)Nc1cccc2cccnc12	16.8
CCOc1ccc2nc(NCCCNS(=O)(=O)c3ccc(C)cc3)c(C#N)cc2c1	9.1
COC(=O)Cc1ccc(NC(=S)NCC(C)C)cc1	9.6
CCCCC(c1nnnn1CC1CCCO1)N1CCN(Cc2ccccc2)CC1 (stereo not given)	7.8
CN(C)C(=O)/C=C\c1cn(-c2ccccc2)nc1-c1ccc2c(c1)OCCO2	9.7
O=C(CN1CCCC1)Nc1c(C(=O)C2CC2)oc2ccccc12	14.4
CC(=NCCN1CCN(C(C)=C2C(=O)c3ccccc3C2=O)CC1)C1=C(O)CC(C)(C)CC1=O	11.1
O=C(CSc1nc2[nH]ncc2c(=O)[nH]1)NCc1ccccc1	9.2
O=C(CSc1nncc2ccccc12)N1CCCCC1	-0.2

Reprinted from the part before: 3 entries, followed by the next part.
SMILES	Biofilm kill mix
CC(=NCCN1CCN(C(C)=C2C(=O)c3ccccc3C2=O)CC1)C1=C(O)CC(C)(C)CC1=O	11.1
O=C(CSc1nc2[nH]ncc2c(=O)[nH]1)NCc1ccccc1	9.2
O=C(CSc1nncc2ccccc12)N1CCCCC1	-0.2
CCOCCCNC(=O)/C(C#N)=C/c1ccc([N+](=O)[O-])o1	13.2
C=C(C)C(=O)N1CC2(CC(c3cccc(NC(=O)CC)c3)=NO2)C[C@H]1C(N)=O (stereo not given in full)	14.4
CCC(C)Nc1nc2c(C)cccn2c(=O)c1C=Nc1ccc(OC)cc1 (stereo not given)	22.4
Cc1cc(NC(=O)CCN2C(=O)/C(=C/c3ccccc3F)SC2=S)no1	4.6
O=C(COC(=O)c1ccc(F)cc1)Nc1nc2ccc([N+](=O)[O-])cc2s1	15.1
Cc1noc2ncnc(SCc3ccc(C(F)(F)F)cc3)c12	20.4
Cc1cc(/C=C2\SC(=S)NC2=O)cc(C)c1O	25.9
Cc1ccc(CNC(=O)NC23CC4CC(CC(C4)C2)C3)cc1	21.8
Cc1c(Cl)cccc1NC(=S)NCCc1ccccn1	6.1
CCN(C(=O)CCCC(=O)N(CC)c1ccccc1)c1ccccc1	14.8
CC(C)CC(C(=O)NC1CCCC1)N(Cc1ccc2c(c1)OCO2)C(=O)c1snc(C(N)=O)c1N (stereo not given)	14.1
O=C(O)CCC(=O)Nc1cc(C(F)(F)F)cc(C(F)(F)F)c1	11.8
COC(=O)Cn1c(=O)c2c(nc3n2CC(C)CN3c2ccc(C)c(C)c2)n(C)c1=O (stereo not given)	9.8
O=C(O/N=C(/c1ccccc1)c1ccncc1)c1cccc(F)c1	13.2
CCN(C(=O)COC(=O)/C=C/c1ccccc1)C1CCCCC1	2.8
COc1cccc(NC(=O)c2ccc(NC(=O)C(C)C)cc2)c1	14.3
COc1ccc(NC(=O)C(C)SCc2ccccc2)cc1OC (stereo not given)	3.6
O=C(Nc1ccccc1N1CCOCC1)c1cccnc1	12.3
COC(=O)c1cc(C(=O)Nc2ccc(S(N)(=O)=O)cc2)cc([N+](=O)[O-])c1	8.0
Cc1cccc(Nc2c([N+](=O)[O-])cc(C(=O)N3CC(=O)Nc4ccccc43)cc2[N+](=O)[O-])c1	10.5
Cc1cc(O)c(/C=N/OCc2ccc(Cl)cc2Cl)c(=O)o1	-10.3
COC(=O)c1ccc(S(=O)(=O)NNC(=O)c2ccc(S(=O)(=O)N3CCCCC3)cc2)cc1	8.3
CCOC(=O)c1c(C)[nH]c(C(=O)COC(=O)/C=C/c2ccc(OC(F)F)cc2)c1C	13.9
Cn1c(N)c(C(=O)COc2ccc(C#N)cc2)c(=O)n(C)c1=O	11.7
CC(=O)c1ccc(/C=C/c2nc3ccccc3n2C)o1	0.5
Cc1cccc(N2CCN(C(=O)c3ccc4c(c3)OCCO4)CC2C)c1 (stereo not given)	17.0
O=C1NNC(c2ccccc2)=N/C1=C\c1ccco1	2.5
Cc1cc(C(=O)N/N=C/c2c(C)n(C)c3ccccc23)n[nH]1	7.2
O=C(Nc1ccc(Cl)cc1)Nc1nnc(/C=C/c2ccccc2)s1	5.9
CCN(CC)CCOc1ccc(/C(=C(/Cl)c2ccccc2)c2ccccc2)cc1	5.7
Cc1ccc2cc(CCNC(=O)c3cccs3)c(=O)[nH]c2c1C	18.3
CC1(C)CC(Nc2ccc(Nc3ccccc3)cc2)CC(C)(C)N1	10.8
CC1CCCN(C(=S)SCC(=O)O)C1 (stereo not given)	16.1
CNC(=O)Nc1ccc(Cn2cc(C(F)(F)F)ccc2=O)cc1	-4.0
CNC(=O)COc1ccc(Nc2nnc(C)c3ccccc23)cc1	20.8
CC(C)CCNC(=O)c1csc2c1CCCCC2	15.7

Quoted at random: 5 compounds from above, in no set order.
SMILES	Biofilm kill mix
O=C(Nc1ccc(Cl)cc1)Nc1nnc(/C=C/c2ccccc2)s1	5.9
COc1ccc(Cc2nc3c4c(ncn3n2)Oc2ccc3ccccc3c2C4c2ccc(OC)c(OC)c2)cc1 (stereo not given)	5.5
CCC(=O)Nc1ccc(NC(=S)NC(=O)c2cc3ccccc3o2)cc1	20.3
O=C(Nc1ccccc1N1CCOCC1)c1cccnc1	12.3
Cc1c(/C=N\NC(=O)C2COc3ccccc3O2)c2ccccc2n1C (stereo not given)	13.7

Continuation:
SMILES	Biofilm kill mix
CC(=O)N1CCN(CCN2C(C)=CC(=C(C#N)C#N)C=C2C)CC1	13.9
COc1ccc(C(C)=O)cc1COc1ccc(F)cc1	-24.7
Cc1csc(-c2cccnc2)n1	8.8
O=C(CN1C(=O)NC2(CCc3ccccc3C2)C1=O)Nc1ccc(Cl)cc1F (stereo not given)	11.6
CC(=O)Nc1ccc(S(=O)(=O)Nc2cccc(NC(=O)c3ccco3)c2)cc1	7.4
O=C(COC(=O)c1ccc(S(=O)(=O)N2CCCC2)cc1)NCc1cccs1	7.5
CN(C)c1cc(NC(=O)CNC(C)(C)CC(C)(C)C)c2ccccc2n1	10.0
CSc1cccc(NC(=O)CSc2ncccc2C(=O)Oc2cccc([N+](=O)[O-])c2)c1	18.8
CCCCCC(=O)NNC(=S)NC(C)=O	1.8
CCO[C@H]1OC(C(=O)O)=C[C@@H](C)[C@@H]1CCCO	10.8
COc1ccc(CC(=O)NNC(=O)c2cnccn2)cc1	8.9
O=S(=O)(NC1=NCCC1)c1ccc(F)cc1F	11.3
Cc1cc(SC(C)C(=O)Nc2ncc(Cl)cc2Cl)nc2ccccc12 (stereo not given)	21.3
Cc1c([N+](=O)[O-])c([N+](=O)[O-])nn1CC(=O)NCCc1ccccc1	14.3
